Source: PubChem BioAssay
CSC inhib: cancer stem cell inhibition | 300,000 tested, 1.1% active | inhibition, % at 7.5 µM | AID 2717 | cancer stem cell-like cells viability, luminescence;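 active means mean at 75% or more and at least half the replicates too; inconclusive means mean and replicates disagree; tested in HMLE shEcad cells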;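 further: 0% = median of negative and 100% = median of positive control wells; the first replicate is given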
MT1-MMP act inh: inhibitors of human MT1-MMP activation; HT1080 RFP-PRO-GFP cells, GFP/RFP ratio fluorescence, overnight; percent of plate control window, DMSO zero; 360,000 tested, 0.061% active; GFP/RFP ratio change, % at 20 µM; AID 651647;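 active means GFP/RFP ratio change of at least 30% with cell ATP level not reduced by more than half and red fluorescence within 50% of control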; further: strong numbers were not always called active
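Test system: HT1080 RFP-PRO-GFP cells; Benchmarks: DMSO and RFP-L50D-GFP cell wells; Timing: cells overnight before dosing, compound overnight, 37 °C, 5% CO2; Compound: one 20 µM compound dose with 1% DMSO; Read-out: GFP/RFP fluorescence ratio.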
eIF4H FP inh: inhibitors of RNA binding by human eIF4H; inhibition, % at 35 µM; eIF4H fluorescence polarization binding assay; 290,000 tested, 0.94% active; Q15056;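 active means 50% or more with normal probe brightness, or confirmed in later tests; inconclusive means above 50% with abnormal brightness, or retests that disagree; inactive means below 50% or failed in later tests; about a fifth of its hits are not listed in these tables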;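 further: calls also rest on retests at 20 µM and on dose response follow-up; 0% = protein and probe with vehicle and 100% = probe without protein; strong numbers were not always called active; many hits fall short of the cut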
Rce1 inhib: inhibitors of yeast Ras-converting enzyme; calls only; yeast membranes, quenched prenylated peptide cleavage fluorescence; AID 2563; 290,000 tested, 0.27% active; Q03530;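 active means fall in fluorescence gain of 50% or more versus controls, with final raw signal at or below 3038400; inconclusive means same 50% fall but final raw signal above 3038400; inactive means fall in fluorescence gain under 50%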;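 further: plate controls were neutral control wells for no effect and wells lacking membranes for full effect; tested at 10 µM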
PABP FP inh: blocks human PABP binding to poly(A) RNA; inhibition, % at 35 µM; AID 2014; fluorescence polarization; 290,000 tested, 1% active;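 active means 50% or more with normal probe brightness, or confirmed in later tests; inconclusive means above 50% with abnormal brightness, or retests that disagree; inactive means below 50% or failed in later tests; about a fifth of its hits are not listed in these tables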;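 further: calls also rest on retests at 20 µM and on dose response follow-up; controls were probe without protein and protein plus probe with vehicle; some compounds called inactive have numbers as strong as hits; many hits fall short of the cut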
Target sequence (P11940 whole entry, looked up): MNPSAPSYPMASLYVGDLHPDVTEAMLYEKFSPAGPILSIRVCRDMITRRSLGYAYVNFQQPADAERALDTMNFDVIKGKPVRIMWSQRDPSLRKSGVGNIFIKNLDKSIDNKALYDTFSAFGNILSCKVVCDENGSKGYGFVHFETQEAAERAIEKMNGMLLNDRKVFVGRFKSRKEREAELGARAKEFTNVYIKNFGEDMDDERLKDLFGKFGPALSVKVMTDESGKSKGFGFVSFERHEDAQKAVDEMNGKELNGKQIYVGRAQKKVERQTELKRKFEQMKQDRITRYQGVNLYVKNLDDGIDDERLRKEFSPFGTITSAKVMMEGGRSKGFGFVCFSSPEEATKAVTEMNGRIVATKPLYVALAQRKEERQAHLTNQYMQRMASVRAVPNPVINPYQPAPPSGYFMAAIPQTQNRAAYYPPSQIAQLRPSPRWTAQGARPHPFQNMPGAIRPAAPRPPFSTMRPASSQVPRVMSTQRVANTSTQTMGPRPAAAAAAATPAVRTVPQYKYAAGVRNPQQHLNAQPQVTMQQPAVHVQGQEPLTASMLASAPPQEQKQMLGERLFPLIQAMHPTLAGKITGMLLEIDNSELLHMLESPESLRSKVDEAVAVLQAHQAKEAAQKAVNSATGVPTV
HIV Env fusion: inhibitors of HIV Env-mediated cell fusion; HeLa-JRFL Env/CEM21 cell fusion, luciferase; inhibition, % at 12.3 µM; 360,000 tested, 1.1% active;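 active means mean replicate inhibition score of at least 50 and every replicate individually at or above 50; inconclusive means only one of the two criteria met; inactive means mean below 50 and not all replicates reaching 50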;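 further: 0% = plate neutral controls and 100% = maraviroc near 300 nM; one replicate is shown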
UUG fidelity: yeast start codon fidelity modulation; S. cerevisiae UUG-firefly luciferase reporter, luminescence/redox ratio; activity score, % at 18.7 µM; 350,000 tested, 0.13% active;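 active means replicate mean at a twofold rise or more, about +100% in these data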;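 further: firefly luciferase made from a UUG start codon reports start codon fidelity; reporter light over untreated wells divided by growth signal over untreated wells; some hits fall short of that in this replicate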
eIF4H FP inh retest: second read-out of eIF4H FP inh, no call of its own (marks repeat the call); inhibition, %; compound at 20 µM; confirmation average;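 mean of two retest wells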
PABP FP inh retest: also measured in PABP FP inh; calls as there; inhibition, %; compound at 20 µM; confirmation repeats;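 mean of two retest wells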
MT1-MMP act inh RFP: second read-out of MT1-MMP act inh, no call of its own (marks repeat the call); RFP signal change, %; measured here: RFP expression control read;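 0 = vehicle wells; hits needed this value within 50% of zero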
An asterisk follows results filed as active; i = inactive; ? = inconclusive; · = no result given; & = joins results of further samples; [ ] = remark or other dose. An unsorted share of the library; overall some 2.9% were active at least once.

SMILES	CSC inhib	MT1-MMP act inh	MT1-MMP act inh RFP	eIF4H FP inh	Rce1 inhib	PABP FP inh	HIV Env fusion	UUG fidelity	others
COC(=O)C(Cc1ccc(O)cc1)NC(=O)C(C)NC(=O)c1ccc(C(C)(C)C)cc1 (stereo unspecified)	-9	0	4	2	i	-15	-2	3
O=C(COCc1cc(-c2cccs2)on1)NC1CCCCC1	2	8	2	-16	i	0	11	-9
Cc1ccc(N2CC(C(=O)N3CCC4(CC3)CC(=O)c3ccccc3O4)CC2=O)cc1 (stereo unspecified)	4	-12	-16	·	i	·	8	-2
COc1ccc(CCn2ccc(O)c(Cc3ccc(Cl)cc3)c2=O)cc1OC	-11	2	-7	-8	i	0	-20	-8
COC(=O)c1ccc(Cn2cc(/C=C\[N+](=O)[O-])c3ccccc32)o1	·	-6	-2	-11	i	12	-83	-2
O=C(CC1SC(=Nc2ccccc2)N(Cc2ccccn2)C1=O)Nc1cccc(Cl)c1 (stereo unspecified)	27	-5	-8	12	i	17	6	-13
CCN(CC)CCNC(=O)c1ccc2c(=O)n(CCc3ccccc3)c(=O)[nH]c2c1	5	-4	-1	-4	i	0	-46	-16
O=C(CCc1c[nH]c2ccccc12)NCc1ccncc1	4	0	2	5	·	7	-11	-15
CCCCN1C(=O)N(c2ccc(Cl)cc2)C(C)(O)CC1(C)C (stereo unspecified)	-8	-2	-4	-15	i	13	31	-26
Fc1ccc(N2CCN(c3ccc4c(C(F)(F)F)cc(C(F)(F)F)nc4n3)CC2)cc1	12	5	-3	-5	i	-5	13	8
Cc1cc(C)c(S(=O)(=O)N2CCN=C2c2ccccc2)c(C)c1	10	-1	3	10	i	0	-14	·
Cc1cc2ncc(S(C)(=O)=O)c(N)n2n1	-11	-1	0	11	i	5	-11	·
CSc1ccccc1NC(=O)CN(C)CC(=O)Nc1ccc(N2CCOCC2)cc1	1	0	-2	-6	i	?	6	·
CN1CCN(C(=O)c2ccccc2N(Cc2ccccc2)S(C)(=O)=O)CC1	-12	1	0	-3	i	2	·	-26
C=CCOc1c(Br)cc(CNn2nnnc2N)cc1OCC	-9	2	-2	-2	i	11	·	-13
OCC1(CCOc2ccccc2)CCN(Cc2nc3ccc(F)cc3[nH]2)CC1	-4	7	9	2	i	-4	-2	·
CC(NC(=O)c1ccccc1NC(=O)c1ccccc1)C(=O)N1CCOCC1 (stereo unspecified)	-8	1	6	6	i	14	15	·
O=C(Nc1ccc(Br)cc1Cl)c1cnccn1	13	-5	4	-5	i	11	·	·
COc1cc(C2C3=C(CC(C)(C)CC3=O)N(C)C(=O)N2C)cc(OC)c1OC (stereo unspecified)	-9	-1	1	0	i	6	9	-10
COc1ccccc1C1/C(=C(/O)c2ccccc2)C(=O)C(=O)N1CCO (stereo unspecified)	11	4	6	4	i	-7	·	·
Clc1ccc2nc(N3CCN(c4ccccc4)CC3)sc2c1	5	2	3	3	i	-7	-181	·
CC(C)OC(=O)CSc1nc(-c2ccc(F)cc2)nc2ccc(F)cc12	3	-4	1	0	i	-1	-81	-7
C=CCCN(C(CC(C)C)C(=O)OC)S(=O)(=O)c1cc(Br)ccc1Br (stereo unspecified)	43	-1	-7	2	i	19	24	-21
CC(=O)Nc1ccc(S(=O)(=O)N2CCC(C(=O)NCc3ccco3)CC2)cc1	-12	0	1	3	i	-1	-25	·
Cc1ccc(S(=O)(=O)N(C)C[C@H]2Oc3cc(Br)ccc3S(=O)(=O)N([C@H](C)CO)C[C@@H]2C)cc1	·	-4	1	·	·	·	41&35[16.7 µM]	-16&-11&3
COCCn1c(SCC(=O)Nc2ccc(Cl)cn2)nc2ccccc21	-5	1	-2	-7	i	5	·	-7
C#CCOCCOCCOCCNc1nc(N2CCOCC2)nc(N2CCN(C(=O)[C@H](C)n3cc(CCCN=C(N)N)nn3)CC2)n1	-8	-1	4	6	i	-5	13	15
CCCNC(=O)C(Cc1ccc(Br)cc1)NC(=O)c1ccc(C#N)cc1 (stereo unspecified)	3	0	2	·	·	·	-39	-18
COc1ccc(C(=O)c2c(N)sc3c2CCN(C(=O)OC(C)(C)C)C3)cc1	-10	-14	-2	68	i	46	38	-12	eIF4H FP inh retest=-5;PABP FP inh retest=28
CCCNC(=O)c1ccc2c(=O)c(O)c(-c3ccc(C)cc3)[nH]c2c1	39	0	2	5	i	10	43	6
CC(/C=N\NC(=O)Cn1c(C)nc2ccccc21)=C\c1ccccc1	-2	8	-18	-13	i	-1	86*	-19
NC(=O)COc1ncn(-c2ccccc2)n1	2	2	5	-2	i	4	·	-12
Nc1ccc(OCC(O)C[n+]2ccc(CCS(=O)(=O)[O-])cc2)cc1 (stereo unspecified)	-9	2	3	-2	i	-11	-17	·
COc1ccc(C2CCCN2C(=O)Nc2cccc(C(C)=O)c2)cc1OC (stereo unspecified)	-3	2	1	-6	i	16	·	6
CCCCNC(=O)c1sc(=S)n(-c2ccccc2OC)c1N	-9	-4	-2	2	i	-2	1	-14
Cn1c(SCC(=O)Nc2nccs2)nnc1C12CC3CC(CC(C3)C1)C2	-1	7	-1	-8	i	-3	32	-8
CCOC(=O)c1ccc(NC(=O)Nc2ncccc2C)cc1	-12	1	-7	3	i	-4	-37	-16
COc1ccc2nc(C(C)O)[nH]c2c1 (stereo unspecified)	-2	-4	-3	-3	i	-1	-91	-15
CN1/C(=C\C(=O)CSc2cccc[n+]2[O-])C(C)(C)c2ccccc21	-41	7	6	9	i	-15	-2	·
COc1ccc(/C=C/C(=O)NC(=S)N2CCCCC2)cc1OC	-15	2	2	8	·	9	8	4
Cc1ccc(S(=O)(=O)N2CCCC(C(=O)NC3CC3)C2)cc1 (stereo unspecified)	·	2	0	-1	i	5	-5	-1
Cc1c(NC(=S)N/N=C/c2cccc(O)c2)c(=O)n(-c2ccccc2)n1C	-2	3	0	-13	i	0	-18	-23
COc1cc(C(=O)Nc2cc(C)c(OCC(=O)N3CCOCC3)c(C)c2)cc(OC)c1OC	1	5	6	-1	i	-2	·	7
CC1CCCCC1NC(=O)COC(=O)c1cc(=O)[nH]c2ccccc12 (stereo unspecified)	-3	-3	4	·	·	·	4	6
Cc1ccc(CN2CCC(Oc3cccc(C(=O)N(C)CCN(C)C)c3)CC2)cc1C	-7	4	4	7	i	8	12	5
CCn1c2ccccc2c2cc(CNCCCN3CCOCC3)ccc21	0	10	4	-4	i	13	?	-8
Cc1cc(C)n(C(C[N+](=O)[O-])c2ccc(Cl)cc2)n1 (stereo unspecified)	-8	2	6	2	i	-7	·	·
O=C(NCC(=O)N(CCN1CCOCC1)C(C(=O)NC1CCCC1)c1cccnc1)c1cccs1 (stereo unspecified)	-26	1	4	-8	i	1	5	·
CCCCn1c(O)c(N=NC(=O)c2ccccc2NS(=O)(=O)c2cccs2)c2ccccc21	-20	-3	-4	5	i	-12	4	·
Cc1c(C(=O)N2CCN(c3ccccn3)CC2)sc2ncnc(N3CCN(c4ccccc4)CC3)c12	-7	2	-7	·	·	·	·	13
O=C(CCNS(=O)(=O)/C=C/c1ccccc1)NCCc1c[nH]c2ccccc12	-7	5	3	-17	i	10	8	-12
CCN(CC)S(=O)(=O)c1ccc(NC(=O)CSc2nnc(-c3cccc(OC)c3)n2C)cc1	-1	9	-4	6	i	6	·	-11
O=S(=O)(c1ccc(Br)cc1)N1CCCC1	-5	-2	2	8	i	-9	-7	-15
O=C(NC(=S)Nc1ccccc1)c1ccc(-c2ccccc2)cc1	-14	0	-4	-2	i	-7	-19	-8
O=C(Cc1ccc(Cl)cc1)NCC(=O)N1CCCC1	3	1	3	-10	i	0	·	1

An excerpt from above in order of length of the SMILES, largest number first.
SMILES	CSC inhib	MT1-MMP act inh	MT1-MMP act inh RFP	eIF4H FP inh	Rce1 inhib	PABP FP inh	HIV Env fusion	UUG fidelity	others
Cc1c(C(=O)N2CCN(c3ccccn3)CC2)sc2ncnc(N3CCN(c4ccccc4)CC3)c12	-7	2	-7	·	·	·	·	13
CCCCn1c(O)c(N=NC(=O)c2ccccc2NS(=O)(=O)c2cccs2)c2ccccc21	-20	-3	-4	5	i	-12	4	·
Cc1ccc(CN2CCC(Oc3cccc(C(=O)N(C)CCN(C)C)c3)CC2)cc1C	-7	4	4	7	i	8	12	5
O=C(CCNS(=O)(=O)/C=C/c1ccccc1)NCCc1c[nH]c2ccccc12	-7	5	3	-17	i	10	8	-12
CC1CCCCC1NC(=O)COC(=O)c1cc(=O)[nH]c2ccccc12 (stereo unspecified)	-3	-3	4	·	·	·	4	6
Cc1ccc(S(=O)(=O)N2CCCC(C(=O)NC3CC3)C2)cc1 (stereo unspecified)	·	2	0	-1	i	5	-5	-1
O=C(Cc1ccc(Cl)cc1)NCC(=O)N1CCCC1	3	1	3	-10	i	0	·	1
